# Screening results: PubChem BioAssay, several laboratories
# T cruzi repl: inhibitors of intracellular T. cruzi growth, primary screen, luminescence, NIH3T3 host cells; T. cruzi beta-gal in NIH3T3, 90 h; inhibition, % (no concentration beside the values); 300,000 compounds, 1.4% hits; AID 1885, 2009;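 active = mean inhibition across valid replicates above about 55%, limit read from the data; inconclusive = mean below that limit but half or more replicates reach it; inactive = mean below it, under half of replicates reach it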;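 note: signal also drops with host cell toxicity which is not excluded here; 0% = plate median of DMSO wells and 100% = zero luminescence signal; higher percent means less beta-gal luminescence so fewer parasites; stock transfer was 50 nL into about 50 µL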
# Bfl-1 A1 inh: caspase 3/7 activation in MEF A1-2A-BIM cells, primary screen, A1 inhibitor project, cell-based, luminescence, HTS; Caspase-Glo 3/7 luminescence, 3 h; percent of clofoctol response, vehicle zero; caspase activation, % (no concentration beside the values); 330,000 compounds, 0.066% hits; AID 2462, 2010;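 active = over half of replicate activation scores above 10%, or exactly half above 10 with the replicate mean above 10; inconclusive = replicate mean below 10 yet half the replicates above 10; inactive = over half of replicates below 10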;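 note: wells of about 30 µL received 50 nL stock; many hits fall short of the cut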
# Vif TR-FRET: inhibitors of Vif binding to APOBEC3G peptide, primary screen, biochemical, TR-FRET, GST-Vif 1-94, biotin-A3G peptide, dose response retest (AID 1117319); Virion infectivity factor (Human immunodeficiency virus type 1 group M subtype B (isolate …; TR-FRET GST-Vif / biotin-A3G peptide binding; higher % means a stronger effect; test concentration not given here; strong numbers were not always called active; inhibition, %, or IC50 in µM where a hit was titrated; 260,000 compounds, 0.57% hits;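 active = above the screen mean plus three standard deviations and confirmed in dose response; inconclusive = results disagree or hit not tested in dose response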;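 note: Vif residues 1-94 fused to GST binding biotinylated APOBEC3G peptide 110-148; 0% = full assay without inhibitor and 100% = GST in place of GST-Vif; retest series ran down from 100 µM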
# Calb FLC: C. albicans growth inhibition with fluconazole, primary screen, CaCi-2 strain, Alamar Blue fluorescence; growth inhibition, % (concentration not given with the values); C. albicans CaCi-2 (fluconazole-resistant clinical isolate) + fluconazole, 48 h; 300,000 compounds, 0.57% hits; AID 1979, 2009;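 active = most replicates above 75%; inconclusive = exactly half above 75%; inactive = most below 75%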;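 note: all wells also contain fluconazole at 8 µg/ml as a sub-toxic cotreatment; 0% = median of DMSO wells and 100% = median of geldanamycin control wells; wells of about 8 µL received 7.5 nL stock; the first replicate is given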
# RanGTP-Impb inh: inhibitors of RanGTP-importin-beta interaction, primary screen, biochemical, FRET, CFP-Ran, YFP-importin-beta, homogeneous. Ran GTPase (GTP-bound) - importin-beta complex. cell-free CFP-Ran/YFP-importin-beta FRET ratio. inhibition, % (no concentration beside the values). 300,000 compounds, 1.1% hits;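 active = most replicates above 15%; inconclusive = exactly half above 15%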;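 note: 0% = DMSO wells and 100% = Ran loaded with GDP instead of GTP; wells of about 40 µL received 100 nL stock; the first replicate is given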
# Ecoli rRNA inh: reduced GFP signal of wild-type E. coli, primary screen, bacterial rRNA inhibitor project, GFP/RFP fluorescence, OD600, single point; 350,000 compounds, 1.6% hits; E. coli WT GFP vs humanized-ribosome RFP mutants, 24 h; stronger effect = lower value; DMSO median 0, no signal -100; AID 720706, 2013; GFP signal change (wild-type ribosome), % (no concentration beside the values);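 active = significant combined selectivity score with lowered wild-type GFP, culture density cut under 30%, mutant RFP and density less affected; inactive = any of these conditions unmet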; note: one replicate is shown; some compounds called inactive have numbers as strong as hits
# Beta apoptosis: inhibitors of cytokine-induced beta cell apoptosis, primary screen, luminescence; 300,000 compounds, 0.8% hits; INS-1E cytokine-induced death, ATP luminescence, 48 h; percent of positive-control rescue, neutral wells zero; protection from apoptosis, % (no concentration beside the values); AID 435005, 2010;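 active = all replicates at 75% or more, or half of them and the mean; inconclusive = half reach 75% but not the mean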;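 note: 0% = cytokine-treated negative control wells and 100% = positive control rescue; higher means more ATP so stronger rescue from cytokine killing; wells of about 40 µL received 100 nL stock; the first replicate is given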
# AF4-AF9 inh: inhibitors of AF4 peptide binding to AF9, primary screen, biochemical, AlphaScreen, biotin-AF4 peptide, FLAG-AF9, single point. inhibition, % at 10 µM. Protein AF-9 (Homo sapiens), P42568. AID 651704, 2012. 350,000 compounds, 0.47% hits;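 active = every replicate reaching a set inhibition limit, whatever the replicate mean, cut at about 25% in these data; inconclusive = mean inhibition reaches that limit but some replicates miss it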;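 note: 0% = plate neutral control median and 100% = total signal loss; the record names both 10 and 1 µM as test concentration; the first replicate is given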
# Target sequence (P42568 whole entry, looked up): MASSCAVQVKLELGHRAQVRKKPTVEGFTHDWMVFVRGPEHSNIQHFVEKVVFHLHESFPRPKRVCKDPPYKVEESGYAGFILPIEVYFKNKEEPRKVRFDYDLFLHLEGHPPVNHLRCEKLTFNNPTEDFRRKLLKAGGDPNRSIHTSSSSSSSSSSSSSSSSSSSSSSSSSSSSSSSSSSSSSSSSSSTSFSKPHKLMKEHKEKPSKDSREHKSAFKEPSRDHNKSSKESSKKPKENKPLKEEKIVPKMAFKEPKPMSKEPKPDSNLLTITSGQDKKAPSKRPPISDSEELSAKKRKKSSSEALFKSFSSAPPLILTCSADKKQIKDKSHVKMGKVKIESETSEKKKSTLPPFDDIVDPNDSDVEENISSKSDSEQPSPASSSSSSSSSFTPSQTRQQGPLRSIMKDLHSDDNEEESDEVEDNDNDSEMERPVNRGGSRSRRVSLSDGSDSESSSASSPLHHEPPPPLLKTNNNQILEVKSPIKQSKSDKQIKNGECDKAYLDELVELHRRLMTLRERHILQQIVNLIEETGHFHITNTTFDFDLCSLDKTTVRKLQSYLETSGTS
# Ecoli rRNA inh OD600: also measured in Ecoli rRNA inh; calls as there; OD600 change, %; measured here: OD600 growth;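 optical density of the mix in the first replicate; 0 = DMSO median and -100 = no signal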
# Ecoli rRNA inh RFP: second read-out of Ecoli rRNA inh, no call of its own (marks repeat the call); RFP signal change, %; measured here: RFP humanized mutant strains;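 first replicate; 0 = DMSO median and -100 = no signal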
# Active calls of the source: *; ? = inconclusive; nt = not tested or not shown; & = joins results of further samples. Not all compounds are listed (hit frequency here may not be typical).
SMILES,T cruzi repl,Bfl-1 A1 inh,Vif TR-FRET,Calb FLC,RanGTP-Impb inh,Ecoli rRNA inh,Ecoli rRNA inh OD600,Ecoli rRNA inh RFP,Beta apoptosis,AF4-AF9 inh
CCn1cnc2c(Nc3cc(F)cc(F)c3)nc(C#N)nc21,nt,1.1,nt,nt,nt,8,9,-1.7,-17,-4.6
C(=C\c1ccccc1)/C=N/N1CCN(Cc2ccccc2)CC1,-15,0.0,nt,-3,-0.3,-25*,-5.4*,2.9*,-4,44*
COc1cc(C(=O)Nc2ccc3nc4n(c(=O)c3c2)CCCCC4)cc(OC)c1OC,-7,0.0,nt,-3,-1.3,-10,-16,3.5,9,4.6
CCN(C(=O)CSc1ncn[nH]1)C1CCCCC1,-4,0.5,5%,9,1.4,nt,nt,nt,-6,nt
COc1ccc(CNC(=O)CN(C(=O)c2csnn2)c2ccc3c(c2)OCCO3)cc1,-2,0.7,nt,1,-2.6,2,13,3.2,-5,-1.0
O=C(Cn1nnc(-c2cccc(C(F)(F)F)c2)n1)N1CCOCC1,-2,nt,3%,-5,0.4,2,-7,-6.0,nt,-3.5
COC(=O)[C@@]1(Cc2ccc(F)cc2)[C@H]2c3cc(C(=O)N4CCCC4)n(CCO)c3C[C@H]2CN1C(=O)c1ccccc1,nt,-1.6,?,nt,nt,-4,-8,-3.5,8,5.1
O=C(CCCc1nc(-c2ccccc2Cl)no1)NC1CCCCC1,5,1.1,1%,-9,0.2,nt,nt,nt,-6,nt
O=C(CCc1nc2ccccc2c(=O)[nH]1)OCc1ccc(Cl)cc1Cl,-13,1.1,-1%,12,-2.9,nt,nt,nt,-1,nt
CN(Cc1ccc(Cl)cc1)C(=O)CCl,7,-0.8,-7%,13,4.8,12,5,-5.0,-10,-0.4
Cc1nnc(N/N=C/c2cccs2)[nH]c1=O,-13,0.7,2%,-1,1.9,10,3,-7.7,3,3.9
CC1CCCN(C(=O)CNC(=O)Cn2ccc3ccccc3c2=O)C1 (stereo unspecified),-8,-0.1,-1%,4,1.3,6,7,0.4,nt,-12
Cc1cc(C(=O)OCC(=O)N2CC(C)OC(C)C2)c(C)n1-c1ccccc1 (stereo unspecified),nt,-0.5,-4%,nt,nt,2,-1,1.3,-1,2.8
CCNC(=O)CSc1nc2ccccc2c(=O)n1-c1cc(OC)ccc1OC,5,-0.1,1%&-4%,-12,-3.5,nt,nt,nt,1,nt
Cc1ccc(CN2CCN(C(=O)c3cccc4ccccc34)CC2)cc1,3,-0.3,nt,-1,-0.8,-21,-30,1.5,8,4.4
CCOCCCNC(=O)c1cc2sc(Cl)cc2n1CC,13,0.9,6%,-4,-5.9,-44,-69,-22,2,-4.0
Cc1ccc(OCC(=O)Nc2nnc(-c3ccco3)s2)cc1,12,-0.5,24%,3,6.4,2,2,7.4,5,-19
Cc1onc(-c2ccccc2Cl)c1C(=O)OCC(=O)c1c(N)n(C)c(=O)n(C)c1=O,17,-0.6,6%,17,-3.9,-14,-25,-2.9,nt,-0.3
O=C(O)c1ccc(CNC(=O)c2ccc(C(F)(F)F)cc2)cc1,-39,?,-8%,-5,4.3,28,15,16,1,-2.8
CCOC(=O)CSc1n[nH]c(-c2cccnc2)n1,-11,1.0,1%,0,-1.0,nt,nt,nt,-4,nt
Oc1cccc(/C=N/n2c(C3CCCCC3)n[nH]c2=S)c1,-7,0.2,2%,12,0.3,0,0,6.7,-7,-3.9
O=S1(=O)C=CC(Nc2ccccc2)C1 (stereo unspecified),-4,0.3,2%,7,-1.1,nt,nt,nt,-3,nt
CC1CCN(C(=O)c2ccc(N3C(=O)C4CCC(C)CC4C3=O)cc2)CC1 (stereo unspecified),-2,-0.7,nt,-4,4.5,-7,-6,1.1,3,nt
Cc1ccccc1-c1nnn(CC(=O)Nc2ccc3c(c2)OCO3)n1,3,0.1,nt,14,2.4,3,-2,-3.4,-6,-1.8
COc1cc(/C=C2\C(=N)N3N=C(S(C)(=O)=O)SC3=NC2=O)ccc1OCCOc1ccc(C)cc1,-5,-1.0,6%,8,1.0,-2,7,-3.8,1,6.8

# Of the compounds above, these have an aryl methoxy group:
SMILES,T cruzi repl,Bfl-1 A1 inh,Vif TR-FRET,Calb FLC,RanGTP-Impb inh,Ecoli rRNA inh,Ecoli rRNA inh OD600,Ecoli rRNA inh RFP,Beta apoptosis,AF4-AF9 inh
COc1cc(C(=O)Nc2ccc3nc4n(c(=O)c3c2)CCCCC4)cc(OC)c1OC,-7,0.0,nt,-3,-1.3,-10,-16,3.5,9,4.6
COc1ccc(CNC(=O)CN(C(=O)c2csnn2)c2ccc3c(c2)OCCO3)cc1,-2,0.7,nt,1,-2.6,2,13,3.2,-5,-1.0
CCNC(=O)CSc1nc2ccccc2c(=O)n1-c1cc(OC)ccc1OC,5,-0.1,1%&-4%,-12,-3.5,nt,nt,nt,1,nt
COc1cc(/C=C2\C(=N)N3N=C(S(C)(=O)=O)SC3=NC2=O)ccc1OCCOc1ccc(C)cc1,-5,-1.0,6%,8,1.0,-2,7,-3.8,1,6.8

# (list continues)
SMILES,T cruzi repl,Bfl-1 A1 inh,Vif TR-FRET,Calb FLC,RanGTP-Impb inh,Ecoli rRNA inh,Ecoli rRNA inh OD600,Ecoli rRNA inh RFP,Beta apoptosis,AF4-AF9 inh
Cc1cc(C(=O)N2CCCC(N3CCN(Cc4ccc5c(c4)OCO5)CC3)C2)n[nH]1 (stereo unspecified),5,0.0,nt,-16,-3.0,12,10,2.5,-3,1.4
COc1ccc(NS(=O)(=O)c2cccc(C(=O)NNC(=O)CNC(=O)c3ccc(C)cc3)c2)cc1,-10,0.6,6%,3,1.5,-2,-1,0.0,-18,0.8
Cc1oc2ccc(OS(C)(=O)=O)cc2c1C(=O)OC(C)C,28,-0.3,7%,13,3.1,-40,-51,-7.5,0,-0.3
O=C(O)CCNS(=O)(=O)c1ccccc1,-7,0.5,-3%,10,4.2,nt,nt,nt,-1,nt
CCn1c(SCC(=O)N2CCCc3ccccc32)nnc1-c1ccoc1C,9,0.4,-11%,-10,0.5,nt,nt,nt,0,nt
COc1cccc(N(CC(=O)N2CCN(C)CC2)S(=O)(=O)c2ccccc2)c1,-9,-0.3,6%,11,2.9,5,6,0.6,-6,2.0
O=c1[nH]c(CN2CCN(S(=O)(=O)/C=C/c3ccccc3)CC2)nc2ccccc12,12,0.7,-3%,1,-3.1,-2,-6,2.1,-2,2.7
COc1ccc(N2C(=O)CSC2c2ccc(F)c(F)c2)cc1 (stereo unspecified),-6,0.3,0%,5,0.5,6,-9,0.5,nt,-1.5
COc1ccc(CN2C(=O)c3ccccc3C2C(=O)NC2CCCC(C)C2C)c(OC)c1 (stereo unspecified),11,nt,-9%,-2,-3.4,-6,-15,0.5,nt,4.8
CCOC(=O)C1(Cc2ccccc2C)CCCN(C(=O)c2ccoc2)C1 (stereo unspecified),-3,-1.6,nt,21,2.2,1,-3,2.9,-1,-1.2
Cc1ccc(S(=O)(=O)N2CCN(C(=O)CN3CCOCC3)C2)cc1,-25,0.5,4%,-1,1.5,nt,nt,nt,2,nt
Cc1ccc(-c2nnc(N3CCN(C(=O)CN4CCOCC4)CC3)c3ccccc23)cc1,7,0.4,-4%&-7%,13,-1.3,nt,nt,nt,1,nt
COc1ccc(C(CCNCc2ccc(OC)c(OC)c2)c2ccc(F)cc2)cc1 (stereo unspecified),18,-0.2,-5%,-1,2.1,nt,nt,nt,-11,3.7
COc1ccc2nc(NC(=O)c3ccco3)sc2c1,-14,-6.4,1%,1,8.0,-5,4,-3.3,18,-3.4
CCc1ccc(-c2cc(C)no2)cc1S(=O)(=O)N1CCN(C(=O)c2ccco2)CC1,7,-1.0,nt,2,5.5,-15,-20,2.6,3,-16
O=C1c2ccccc2-c2nnc(-c3ccc(O)cc3)cc21,7,-8.3,nt,-5,6.0,-10,-5,1.5,6,-0.8
O=C(O)Cn1cc(/C=N/Nc2ccc([N+](=O)[O-])cn2)c2ccccc21,13,1.2,1%,-6,-1.9,-7,-3,-1.6,-1,4.3
C/C(CC(=O)Nc1ccc([N+](=O)[O-])cc1)=N\NC(=O)c1ccccc1O,-2,0.4,-4%,0,-0.9,-1,-3,-1.0,-1,0.8
Cc1ccccc1S(=O)(=O)Cc1ccc(C(=O)N2CCN(c3ncccn3)CC2)o1,-7,-0.2,?,1,6.2,nt,nt,nt,0,nt
NC(=O)COn1c(SCC(N)=O)nc2ccccc2c1=O,-10,-0.5,6%,5,0.7,24,11,1.7,0,-1.0
CC(NC(=O)COc1ccc(-c2ccccc2)cc1)C1CCCO1 (stereo unspecified),1,0.1,nt,-3,2.8,-1,-6,-0.7,nt,0.1
CCC(C)Sc1cccc(-c2nc3ccc(Cl)cn3c2NCc2ccccc2)c1 (stereo unspecified),24,-1.1,nt,-9,0.2,nt,nt,nt,6,nt
CC(C)C(=O)Nc1c2c(nc3ccccc13)N(C)CC2,-15,0.2,3%,-8,-0.5,nt,nt,nt,-3,nt
CCOC(=O)c1ccc(COC(=O)c2ccc(-c3nnc(-c4ccccc4)o3)cc2)o1,-17,-9.1,-1%,0,-1.1,nt,nt,nt,11,nt
O=C(Nc1cnn(Cc2ccc(F)cc2)c1)c1cc2nc(-c3ccco3)cc(C(F)(F)F)n2n1,-7,-0.6,0%,2,3.2,nt,nt,nt,7,nt
Cc1ccc(NC(=O)N(Cc2ccco2)Cc2cc3cc(C)cc(C)c3nc2Cl)cc1,56*,nt,-3%,9,1.2,nt,nt,nt,nt,nt
S=C(NC1CCCCC1)N1CCCCC1,-8,0.4,22%,-6,-2.7,13,13,0.6,-1,-1.7
Cc1ccc2cc(C#N)c(SCC(=O)N3CCCc4ccccc43)nc2c1C,3,0.1,-11%,2,4.3,3,3,1.3,23,1.4
OC(COC(c1ccccc1)c1ccccc1)CN1CCOCC1 (stereo unspecified),-4,1.5,-2%,-15,2.1,5,7,-0.4,5,-1.1
COc1ccc(C2c3c(C)nn(-c4ccccc4)c3NC(=O)N2c2ccccc2)cc1 (stereo unspecified),0,0.4,-3%,8,4.3,8,-6,-0.6,0,-2.8
